HNF4A DNA FP: change in binding of human HNF4 alpha to DNA; AID 1224865; 0.3% of 360,000 active; HNF4a-FITC DNA binding, fluorescence polarization, 1 h; activity change, % at 10 µM; in the data active = activity change above about 30%, passing the limit was not always enough;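 also: controls were the assay level and a saturating level of protein; the project sought stronger binding though the title names inhibitors; some compounds called inactive have numbers as strong as hits; positive values seem to mean higher polarization but the record does not say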
LANA-H2A inh: blocks KSHV LANA binding to histone H2A/H2B; cell-free LANA-H2A/H2B peptide, fluorescence polarization; inhibition, % (test concentration not listed); AID 2629; 0.6% of 320,000 active; in the data active = inhibition mostly above about 10%, no sharp cut-off; inactive = mostly below about 6.7%;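 also: stock transfer was 7.5 nL into about 10 µL; 0% = median of vehicle wells and 100% = median of positive control wells; one replicate is shown; the record names a cut of 25% in any replicate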
Ecoli growth: blocks Escherichia coli growth; OD600, 23 h; hits give low values; OD600 absorbance (test concentration not listed); 0.21% of 330,000 active;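 active = OD600 absorbance below the run mean of sample wells minus 3.6 SD, in any replicate, cut at about 0.56 in these data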;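 also: stock transfer was 300 nL into about 60 µL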
B2AR ag: agonists of human beta-2 adrenergic receptor inducing internalization; P07550; response, % (concentration not given with the values); Am2.2-beta2AR cells, FAP receptor internalization, flow cytometry; reference of the scale not given here; 0.43% of 340,000 active;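 active = response above a set limit, near 3 SD of response in nonfluorescent compounds, cut at about 42% in these data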;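 also: stock transfer was 100 nL into about 11 µL; a reference agonist was the positive control; negative values mostly stem from fluorescent compounds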
ALR inh: blocks human ALR sulfhydryl oxidase activity. inhibition, % (test concentration not listed). purified ALR, DTT oxidation, H2O2 HRP-luminol luminescence. AID 485317. 3.8% of 290,000 active. P55789;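 active = mean and each replicate at 75% or more; inconclusive = only one of the two met; inactive = neither met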;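 also: stock transfer was 7.5 nL into about 7.5 µL; 0% = neutral wells and 100% = wells with inactivated enzyme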
Target sequence (P55789 whole entry, looked up): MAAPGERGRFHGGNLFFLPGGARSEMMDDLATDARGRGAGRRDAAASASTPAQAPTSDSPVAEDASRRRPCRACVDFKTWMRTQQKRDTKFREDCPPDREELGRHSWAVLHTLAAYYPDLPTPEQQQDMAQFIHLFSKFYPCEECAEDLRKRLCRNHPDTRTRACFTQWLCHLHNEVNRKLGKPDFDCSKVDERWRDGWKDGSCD
UCH37 inh: human UCH37 deubiquitinating enzyme inhibition; purified proteasome/UCH37, Ub-AMC cleavage fluorescence; inhibition, % (concentration not given with the values); 0.33% of 330,000 active;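 active = mean of two replicates above 20%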;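 also: 0% = compound-free wells with enzyme and 100% = wells lacking proteasome; stock transfer was 100 nL into about 20 µL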
Target sequence (Q9Y5K5 whole entry, looked up): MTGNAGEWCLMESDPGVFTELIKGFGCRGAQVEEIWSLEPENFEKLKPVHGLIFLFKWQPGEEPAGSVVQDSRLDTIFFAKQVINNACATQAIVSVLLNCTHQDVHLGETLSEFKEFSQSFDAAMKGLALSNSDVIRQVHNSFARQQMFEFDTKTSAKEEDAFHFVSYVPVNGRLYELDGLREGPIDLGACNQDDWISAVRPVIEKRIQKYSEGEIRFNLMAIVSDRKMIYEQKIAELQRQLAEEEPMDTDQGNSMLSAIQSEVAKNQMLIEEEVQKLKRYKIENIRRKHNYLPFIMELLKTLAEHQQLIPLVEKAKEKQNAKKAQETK
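system = Proteasome-associated human UCH37 deubiquitinase | amount = 0.15 nM proteasome as dispensed | medium = pH 7.4 Tris-HCl (50 mM) with ovalbumin, ATP-MgCl2, DTT | incubation = 30 min preincubation with enzyme, 25 min cleavage at room temperature | detection = AMC fluorescence 355/460 nm | read-out basis = percent inhibition | controls = no-proteasome and no-compound wells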
FGF22 binding: shifts melting point of recombinant human FGF22. 1.5% of 340,000 active. calls only at 9.99 µM. recombinant FGF22 thermal shift, SYPRO orange fluorescence; percent of sucrose octasulfate shift, DMSO zero. Q9HCT0;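 active = melting point raised past a set limit in the mean and every replicate; inconclusive = no clear call; three in four hits are not shown here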
Target sequence (Q9HCT0 whole entry, looked up): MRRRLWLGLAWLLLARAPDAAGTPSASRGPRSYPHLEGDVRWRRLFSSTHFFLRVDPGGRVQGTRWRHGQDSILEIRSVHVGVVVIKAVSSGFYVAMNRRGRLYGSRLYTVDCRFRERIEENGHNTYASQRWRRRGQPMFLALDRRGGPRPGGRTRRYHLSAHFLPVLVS
* = called active by the depositor; i = inactive; ? = inconclusive; . = not tested or not shown; + = active, no number.

No.	structure	HNF4A DNA FP	LANA-H2A inh	Ecoli growth	B2AR ag	ALR inh	UCH37 inh	FGF22 binding
1	C=CCn1c(SCC(=O)NC2CCCCC2)nnc1C(C)NC(=O)c1cccs1 (centres undefined)	-1.2	5.3	0.741	4.9	-12.6	-0.4	.
2	O=S(=O)(NCCNS(=O)(=O)c1ccc(F)cc1)c1ccc(F)cc1	-0.7	-0.1	0.649	-0.5	.	2.4	.
3	COc1ccccc1NC(=O)CCNC(=O)Cn1ccc2ccccc2c1=O	-0.6	-2.8	0.691	10.7	-6.8	1.5	.
4	CCSc1nnc(Nc2ccccc2)s1	0.1	-2.8	0.683	4.9	4.8	4.3	.
5	Cc1cccc(-n2ncc3c(N4CCCc5ccccc54)ncnc32)c1	-1.9	-11.2	0.741	-2.1	2.5	-39.7	.
6	Cc1cc(N(C)C)nc(SC(C)C)n1	0.3	3.7	0.732	-11.3	.	5.6	.
7	CC(=O)Nc1ccc(S(=O)(=O)N2CCC(n3cnc4cc(F)ccc43)CC2)cc1	2.6	-0.3	0.715	-14.5	-15.2	4.5	.
8	COc1ccc(NS(=O)(=O)c2cc(NC(=O)/C=C/c3cccs3)ccc2N2CCOCC2)cc1	1.2	-8.3	0.713	-8.3	-6.3	2.0	i
9	COc1ccc(CCNC(=O)c2ccc(CNc3nc(=S)[nH]c4ccccc34)cc2)cc1OC	3.2	0.6	0.73	-2.6	11.1	1.2	i
10	O=C(CCCCCN1C(=O)c2ccccc2C1=O)Nc1ccc(S(=O)(=O)N2CCCCC2)cc1	4.3	3.0	0.67	12.4	-2.6	0.5	.
11	O=C(CCc1ccccc1)NNc1cc(N2CCCCC2)nc(N2CCCCC2)n1	0.8	2.0	0.721	0.3	13.6	3.8	i
12	COc1ccc(C(=O)NNC(=O)C(C)NC(=O)c2ccccc2NC(=O)c2ccco2)cc1 (centres undefined)	0.9	-0.4	0.678	-0.5	-11.7	-0.5	i
13	O=C(NCc1ccccn1)C(=O)NCC(c1ccco1)N1CCN(c2ccc(F)cc2)CC1 (centres undefined)	-1.8	-3.5	0.704	-0.1	98.0*	-0.2	i
14	Cc1cccc(-n2c(C)cc(/C=N/n3cnnc3)c2C)c1	-0.6	-3.1	.	-0.9	-24.7	.	.
15	Cc1ccccc1OCC(=O)NC(=S)Nc1cccc2cc(O)ccc12	-1.5	-0.3	0.694	7.7	45.5	3.8	i
16	COc1ccc(CCNCC(=O)Nc2ccc(C)c(S(=O)(=O)N(C)C)c2)cc1OC	3.8	0.0	0.704	-5.3	3.7	4.2	i
17	COc1cc(Cl)c(C)cc1NC(=O)Cc1ccc(OC)c(OC)c1	-0.1	2.6	0.648	4.5	-17.0	3.6	.
18	CC(C)(/C=N/NC(=O)CSCc1ccccc1Cl)CCC#N	0.9	-1.3	.	3.4	98.0*	.	.
19	N#CCCCSc1ncccc1-c1nc2ccccc2[nH]1	-5.2	-5.4	0.749	0.1	-9.0	-6.7	.
20	COc1ccc(OC)c(NC(=O)Nc2ccccc2C)c1	1.3	1.9	0.729	6.6	-11.4	6.8	.
21	O=C(Cc1ccc(S(=O)(=O)N2CCOCC2)s1)Nc1cc(Cl)ccc1Cl	13.0	+	.	-8.2	3.5	.	i
22	CCN(CC)CCN1C(=O)C(O)=C(C(=O)c2cccs2)C1c1ccc(C)o1 (centres undefined)	-0.6	-1.5	0.675	3.9	.	4.8	.
23	O=C(COC(=O)c1cc(-c2cccnc2)nc2ccccc12)Nc1ccc(F)cc1F	13.1	0.2	0.709	-15.6	-4.5	-8.7	.
24	O=C(/C=C/c1ccc(F)cc1)NCCCn1ccnc1	-3.4	1.8	0.675	-13.0	-20.0	1.4	i
25	COc1cccc(N(C(=O)CNC(=O)c2ccco2)C(C(=O)NC2CCCCC2)c2cccnc2)c1 (centres undefined)	0.3	0.7	0.63	9.0	1.5	2.2	i
26	CCOC(=O)Cc1csc(NS(=O)(=O)c2ccc(Br)cc2)n1	-1.9	-13.4	0.643	3.0	-1.8	2.1	i
27	N[C@@H](Cc1ccc(O)cc1)C(=O)Nc1ccc2ccccc2c1	3.0	.	0.627	1.6	2.5	2.7	i
28	CCOC(=O)c1ccc(NC(=O)C(=O)NCC2(c3ccc(OC)cc3)CCOCC2)cc1	2.5	1.6	0.597	1.0	.	0.8	i
29	O=C1NC(=O)C2(CCc3ccccc32)N1 (centres undefined)	-0.5	-1.7	0.773	8.5	-6.2	2.4	.
30	CCOC(=O)CCCCCN1C(=O)c2cccc3cccc(c23)C1=O	6.5	-0.5	0.694	3.9	4.3	-54.6	i
31	Cc1cccc(NC(=O)CSCC(=O)Nc2ccccc2C(=O)NC2CC2)c1	5.3	-8.0	0.662	1.2	-14.4	1.7	i
32	CC(=O)Nc1cccc(/C(C)=N/NC(=O)c2c(-c3ccccc3Cl)noc2C)c1	-0.1	3.3	.	-10.8	-1.9	.	.
33	O=c1[nH]cnc2sc3c(c12)CCCC3	-2.8	2.4	0.671	-4.0	1.7	3.5	.
34	O=C(O)c1cc(Cl)c(Cl)cc1C(=O)N1CCOCC1	1.1	-4.1	0.698	9.5	-6.1	4.5	i
35	Cc1ccc(Cl)cc1NC(C#N)c1ccccc1 (centres undefined)	-0.8	-1.2	0.705	7.2	.	-0.4	i
36	O=C(Nc1ccc(NC(=O)c2ccco2)cc1)c1ccc2c(c1)OCCO2	-1.0	-12.5	0.683	-0.3	-2.6	-5.8	i
37	Cn1nccc1C(=O)NC1CC(C)(C)Cc2c1cnn2-c1ccc(F)cc1 (centres undefined)	-6.0	4.2	.	1.1	2.2	.	i
38	COC(=O)c1cc(NC2c3ccccc3C(=O)N2c2ccc(Cl)cn2)cc(C(=O)OC)c1 (centres undefined)	1.6	-2.6	0.763	-1.8	-21.6	4.3	i
39	CC(=O)c1cccc(NC(=O)COc2nsnc2N2CCOCC2)c1	4.4	-13.0	0.671	-2.8	1.4	2.3	.
40	COc1ccccc1NC(=O)CSc1nncn1N	1.4	-2.7	0.629	16.0	-11.0	1.5	i
41	Nc1nc(SCC(=O)c2ccc(Br)s2)n[nH]1	-1.3	1.5	0.641	3.0	13.0	-1.1	i
42	CN(C(=O)c1ccc2c(=O)n3c(nc2c1)CCCCC3)c1ccccc1	-0.6	-5.1	0.667	-8.0	-0.3	-0.7	.
43	CN1CCN(c2nc(-c3ccco3)cc(C(F)(F)F)n2)CC1	2.2	5.4	0.67	2.6	-4.7	-16.5	i
44	Cc1noc(C)c1C(=O)Nc1nc2ccc(Cl)cc2s1	-0.6	2.4	0.656	4.6	-8.1	3.6	i
45	O=c1c2c([nH]n1-c1ccccc1)CCCC2	1.4	-3.0	0.675	-8.8	-11.3	1.0	i
46	Cc1cccc(NC(=S)NCc2cccn2C)c1	-0.7	10.4	0.729	-1.2	72.4	4.8	.
47	O=C(NNc1cccc(Cl)n1)C(F)(F)F	3.6	-5.4	0.636	0.8	46.6	1.7	i
48	C=CCOc1ccc(Br)cc1CNC(C)(C)CO	3.0	3.9	0.656	-5.1	-0.5	3.5	.
49	CCOC(=O)c1sc(NS(=O)(=O)c2ccccc2Cl)nc1C	5.1	-1.4	0.643	-2.6	5.1	0.9	.
50	Cc1ccc(Sc2ccc(S(=O)(=O)Nc3ccc(C(=O)O)cc3)cc2)cc1C	-4.7	-0.3	0.688	5.8	98.3*	2.4	i
51	Cc1ccc(C)c(C(=O)n2cnnc2N)c1	-0.5	-1.0	0.671	4.2	?	0.7	.
52	CCCc1cc(=O)[nH]c(SCC(=O)c2cc(C)n(C)c2C)n1	-2.7	-1.1	0.726	-2.4	97.8*	-1.4	.
53	COc1cc(C(=O)NCc2ccncc2)cc(Br)c1OCc1ccccc1	-2.9	-1.1	0.672	7.2	-6.1	1.6	i
54	O=C1c2ccccc2S(=O)(=O)c2cc(N3CCC4(CC3)OCCO4)ccc21	.	1.6	0.779	.	.	8.9	i
55	Cn1c(=O)c2[nH]cnc2n(-c2ccccc2)c1=O	-0.2	2.5	0.744	1.4	1.1	-0.9	.
56	CN(CCCNC(=O)c1cn(C)c2ccc(S(=O)(=O)N(C)C)cc2c1=O)c1ccccc1	-0.1	0.7	0.635	-7.3	.	2.0	i
57	Cc1cccc(CC(=O)Nc2cc(=O)n(C)c(=O)n2C)c1	1.9	-0.5	0.708	9.6	1.8	2.5	i
58	O=C(OCc1ccccc1)N1CCOCCOCCN(C(=O)OCc2ccccc2)CCOCCOCC1	4.9	-3.4	0.642	-18.5	-1.1	1.9	i
59	COc1ccc(-c2ccc(CCC(=O)O)n2-c2ccccc2O)cc1	10.8	-12.4	0.683	3.1	.	-3.6	i
60	Cc1nc(SCC(=O)Nc2cc(C(N)=O)cc(C(N)=O)c2)c2c(C)c(C)sc2n1	3.3	-9.7	0.658	3.0	-1.5	0.6	i

Carrying on:
No.	structure	HNF4A DNA FP	LANA-H2A inh	Ecoli growth	B2AR ag	ALR inh	UCH37 inh	FGF22 binding
61	COc1ccc(CCn2c(C)c(C(C)=O)c(C(C)=O)c2C)cc1OC	0.3	1.6	0.687	-3.3	.	0.9	i
62	CC1CCCC(C)N1CCCNC(=O)c1ccc2nc(N3CCOCC3)sc2c1 (centres undefined)	-0.8	5.1	0.751	-10.6	.	4.1	i
63	CCOc1ccc(-c2c(=O)n(O)c3ccccc3[n+]2[O-])cc1	-2.5	3.0	0.688	9.0	-1.4	-7.1	i
64	CCOC(=O)c1ccc(NC(=O)c2c(Cl)cc(C)nc2C)cc1	-2.6	-4.2	0.66	-7.1	-9.6	1.1	i
65	COc1ccc(CC(=O)Nc2c3c(nn2-c2cccc(Cl)c2)CS(=O)(=O)C3)cc1	-2.3	10.2	0.75	-7.7	.	1.0	.
66	COc1ccccc1/C=C/C(=O)OCC(=O)Nc1ccc2c(c1)OCCO2	-5.8	.	0.704	9.3	.	-7.4	i
67	CSc1ccccc1NC(=O)COc1ccc(Cl)cc1	-2.0	1.6	0.693	6.6	-3.3	0.5	.
68	O=C(Nc1ccc2c(c1)OCCO2)C1CCN(C(=O)c2ccc(F)cc2)CC1	-1.6	3.4	0.663	3.3	-3.3	2.1	.
69	O=C(NCc1cccs1)N[C@@H](Cc1ccccc1)C(=O)O	7.5	-6.6	0.709	3.0	-5.0	-3.2	i
70	Cc1nn(-c2ccccc2)c(C)c1C(=O)OC(C)C(=O)NC1CCCCC1C (centres undefined)	-0.1	-26.0	0.704	-6.1	21.8	1.9	i
71	O=C(Oc1ccccc1C(=S)N1CCOCC1)c1cccc([N+](=O)[O-])c1	1.1	6.1	0.668	7.5	.	0.3	i
72	O=C(C[C@@H]1C/C=C/CC[C@H](Cc2ccc(F)cc2)C(=O)OC[C@@H](Cc2ccccc2)NC1=O)N[C@H](CO)Cc1ccccc1	0.2	1.9	.	14.2	-7.6	.	i
73	Cc1ccc(S(=O)(=O)NNC(=O)c2ccccc2O)cc1	4.2	5.0	0.649	4.5	28.4	0.1	.
74	C=CCNC(=O)/C(C#N)=C/c1ccccc1[N+](=O)[O-]	-1.4	6.8	0.697	-2.4	-3.9	0.0	i
75	CCOC(=O)N1CCN(C(c2ccc(C)cc2)c2sc3nc(C)nn3c2O)CC1 (centres undefined)	3.0	2.9	0.748	1.3	-8.9	3.5	i
76	N#Cc1cn(CC(=O)N2CCCC2)c2ccccc12	-0.8	4.9	0.728	-6.9	-15.9	-3.6	.
77	CC[C@@]1(C(=O)OC)N[C@H](CN(C)C(=O)c2ccccc2)[C@@H]2C(=O)N(Cc3ccccc3)C(=O)[C@@H]21	-1.6	.	0.686	3.0	.	3.8	i
78	Fc1cccc(NCc2cn3ccccc3n2)c1	-1.6	2.1	0.613	-4.6	49.1	-2.5	.
79	NC(=O)CSc1ncnc2c1oc1ccccc12	-4.7	3.5	0.7	-4.2	-6.2	2.2	i
80	O=P(COCCCCCOCP(=O)(c1ccccc1)c1ccccc1)(c1ccccc1)c1ccccc1	3.1	-1.2	0.667	2.0	2.7	6.7	i
81	CCN(CC)CCCNC(=O)c1ccc2c(Cl)c3c(nc2c1)CCCC3	-0.6	0.2	0.709	11.2	7.6	1.9	i

High-throughput results deposited in PubChem by several laboratories.

An excerpt; rates above refer to the full screens.
